D2 PAM = potentiates the human D2 dopamine receptor allosterically. potentiation, % (test concentration not listed). AID 624464. P14416. 360,000 tested, 0.23% active. DiscoveRx D2 beta-arrestin cells, luminescence, 90 min; 100% = 57 uM dopamine signal; active = potentiation of 50% or more; inconclusive = 30% to 50%; inactive = 30% or less;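 note: compound concentration not given in the record; tested on top of an EC20 dose of dopamine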
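D2 cells co-treated with compound plus 50 nM dopamine (EC20) for 90 min at 37 deg C to detect potentiation. Beta-arrestin recruitment was read as enzyme-fragment luminescence after 1 h at ambient temperature. Full response was set by 57 uM dopamine.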
Sfp inh = blocks B. subtilis Sfp PPTase activity; Q9F4F7; Biochemical Sfp PPTase activity, qHTS; Potency, µM, inactives show max response, negative = inhibition, most hits filed as inhibitors; 310,000 tested, 3.5% active; active = well fitted inhibition curve with a large enough effect; inconclusive = small, poorly fitted or top-dose-only effect, or another doubt; inactive = no such curve, though single readings can be large or run the other way;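 note: the enzyme is Sfp with the accession as filed and its product quenches rhodamine fluorescence; potency is the fitted concentration of half-maximal effect; 0% = enzyme reaction without inhibitor and -100% = no enzyme wells; top concentration of the series not given in the record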
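Sfp 15 nM + cpd, 15 min RT; start w/ rhodamine-CoA 5 uM, BHQ-2-YbbR 12.5 uM (final); 50 mM Hepes pH 7.6, 10 mM MgCl2, 0.01% NP-40, 0.01% BSA; read 525/598 nm at 0 and 30 min.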
Menin MLL FP FL = displaces fluorescein MLL peptide from human menin; Fluorescence polarization, fluorescein-MLL peptide displacement from menin; FP activity change, % at 61.4 µM; 290,000 tested, under 10 active; AID 1766; inconclusive = falling polarisation curve, or a change in total fluorescence; inactive = total fluorescence flat and polarisation flat or rising; no compound was filed as active; the % refers to the polarisation; negative = inhibition;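 note: % of control where 0% means no effect; inhibitors lower the polarisation; unlabelled MLL peptide was the positive control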
gsp antag = gsp mutant antagonism; gsp-mutant cells, cAMP HTRF, 30 min; control for the full effect not named in the record; Potency, µM (doses to about 76.9 µM), for the others: top-dose activity change, negative = inhibition, usual class: inhibitors; 340,000 tested, 0.4% active; active = falling curve of any shape with a large fitted effect; inconclusive = falling curve, mostly with a smaller effect; inactive = flat or rising curve; cell line not stated here;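 note: intracellular cAMP measured with PDE inhibitor Ro 20-1724 present during compound exposure; potency is the fitted concentration of half-maximal effect; % is set by controls: 0 for no effect and ±100 for the full control effect; nearly all actives have a fitted effect of over 65% in size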
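G418-selected cells were plated in DMEM/10% FBS for 16-24 h at 37C, then treated with compounds plus the PDE inhibitor […] (300 uM solution added) for 30 min at 37C. Intracellular cAMP was measured by HTRF after 30 min lysis at room temperature.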
ClpP mod = qHTS Assay for Activators of ClpP; purified B. subtilis ClpP, FRET peptide cleavage, 20 min; 340,000 tested, 1.9% active; ATP-dependent Clp protease proteolytic subunit (Bacillus subtilis (strain 168)), P80244; AID 651965, 2013; Potency, µM (highest dose often 57.5 µM), inactives show at the highest dose activity change, negative = active; active = well fitted falling curve with a large enough effect; inconclusive = small, poorly fitted or top-dose-only effect; inactive = no such curve, though single readings can be large or run the other way; note: potency is the fitted concentration of half-maximal effect; the source files actives as falling curves though it sought activators and does not explain the sign; nearly all actives have a fitted effect of over 65% in size; many hits overshoot -100%
Target sequence (P80244 whole entry, looked up): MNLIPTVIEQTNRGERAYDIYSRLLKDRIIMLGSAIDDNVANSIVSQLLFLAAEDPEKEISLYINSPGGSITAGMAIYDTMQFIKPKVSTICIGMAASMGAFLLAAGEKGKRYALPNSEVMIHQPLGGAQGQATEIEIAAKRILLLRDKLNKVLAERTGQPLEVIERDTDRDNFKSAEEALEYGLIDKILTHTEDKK
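Purified B. subtilis ClpP, 10 microg/mL final in Tris/HCl pH8 with KCl, BSA, glycerol and Tween-20, cleaved an Abz/nitrotyrosine-quenched decapeptide. Fluorescence (ex 320, em 430) was read at 0 and 20 min at room temperature. Delta was normalized to 5.8 microM ADEP and DMSO/no-enzyme controls.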
gsp agonist = agonists of gsp mutant (McCune-Albright syndrome); Potency, µM (titrated, usually from 76.9 µM), inactives show top-dose activation (cAMP increase), hits mostly activators; gsp mutant cells, cAMP HTRF, 30 min; control for the full effect not named in the record; 340,000 tested, 0.13% active; AID 624287; active = well fitted activation curve with a large enough effect; inconclusive = small, poorly fitted or top-dose-only effect, or another doubt; inactive = no such curve, though single readings can be large or run the other way; cell line not stated here;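 note: phosphodiesterase inhibitor Ro 20-1724 added with compounds to block cAMP breakdown; potency is the fitted concentration of half-maximal effect; nearly all actives have a fitted effect of over 60% in size; about a fifth of the inactives were tested at one dose only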
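Cells in DMEM/10% FBS with G418 were pretreated with compounds in DMSO plus […] (300 uM stock) for 30 min at 37C. cAMP was measured by HTRF (cAMP-d2 plus anti-cAMP antibody-K) after 30 min at room temperature.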
TRPV1 PAM = human TRPV1 potentiation; Q8NER1; TRPV1-expressing cells, Fluo-8 calcium influx, capsaicin EC20 potentiation; host cell line not named in the record; control for the full effect not named in the record; potentiation, % at 8.33 µM; 320,000 tested, 0.02% active; active means potentiation above 80%; inconclusive means 30% to 80%; inactive means below 30%; note: 0% is about no effect
Target sequence (Q8NER1 whole entry, looked up): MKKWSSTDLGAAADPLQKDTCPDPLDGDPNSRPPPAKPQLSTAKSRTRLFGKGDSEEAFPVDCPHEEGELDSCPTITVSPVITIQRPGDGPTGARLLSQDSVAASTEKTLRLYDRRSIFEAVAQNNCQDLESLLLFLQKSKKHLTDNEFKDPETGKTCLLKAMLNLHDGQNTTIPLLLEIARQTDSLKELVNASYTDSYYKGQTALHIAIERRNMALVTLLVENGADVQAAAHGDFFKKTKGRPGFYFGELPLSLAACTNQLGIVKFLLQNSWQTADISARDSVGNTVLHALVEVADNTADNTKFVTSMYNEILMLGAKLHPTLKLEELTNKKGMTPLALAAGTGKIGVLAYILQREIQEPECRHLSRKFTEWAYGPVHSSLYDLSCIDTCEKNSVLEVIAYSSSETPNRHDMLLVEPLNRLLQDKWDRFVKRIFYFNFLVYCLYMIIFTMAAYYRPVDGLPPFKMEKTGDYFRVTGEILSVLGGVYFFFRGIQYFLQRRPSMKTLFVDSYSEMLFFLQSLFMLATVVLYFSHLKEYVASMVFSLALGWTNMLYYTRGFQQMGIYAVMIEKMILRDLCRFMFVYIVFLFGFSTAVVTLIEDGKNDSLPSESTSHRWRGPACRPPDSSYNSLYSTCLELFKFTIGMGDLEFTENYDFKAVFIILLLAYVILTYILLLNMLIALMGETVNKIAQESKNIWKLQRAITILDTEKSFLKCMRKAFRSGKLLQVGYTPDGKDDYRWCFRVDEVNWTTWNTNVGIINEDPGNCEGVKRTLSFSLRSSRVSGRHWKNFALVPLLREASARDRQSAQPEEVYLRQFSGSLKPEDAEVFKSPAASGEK
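Cells expressing TRPV1 were dye-loaded with Fluo-8 and read kinetically: 10 s baseline, 3 min after compound (agonist portion), then 2 min after EC20 capsaicin (allosteric enhancer portion). Calcium-bound dye fluorescence at 480/520 nm.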
* = called active by the depositor; ? = inconclusive; nt = not tested or not shown; & = joins results of further samples; [ ] = remark or other dose.

SMILES	D2 PAM	Sfp inh	Menin MLL FP FL	gsp antag	ClpP mod	gsp agonist	TRPV1 PAM
CC(=O)Nc1ccc(C(=O)OCC(=O)Nc2c(F)cccc2F)cc1	-3	-2%	4.3	-13%	-1.3%	1%	nt
CCOc1ccc(C=NC23CN4CN(CN(C4)C2)C3)cc1	2	29%	3.0	-13%	-5.3%	10%	10
CCN(CC)C1Oc2cc3c(cc2C(c2cccc(OC)c2O)C1C)OCO3 (stereo unspecified)	-10	nt	nt	-8%	-3.8%	2%	nt
COc1cc(/C=N\NC(C)=O)ccc1OC/C=C/c1ccccc1	0	6%	1.5	-5%	-14%	-13%	8
CC1(C)Cc2c(cnn2-c2ccccc2)C(NC(=O)CCCn2cncn2)C1 (stereo unspecified)	-25	9%	nt	-1%	1.3%	0%[15.4 µM]	4
Cc1cccc(C)c1NC(=O)CN(C)C(=O)c1ccc(NS(=O)(=O)c2ccc3[nH]c(=O)[nH]c3c2)cc1	-1	nt	nt	5%	nt	-13%[15.4 µM]	2
O=S(N1CCCCC1)C12CC3CC(CC(C3)C1)C2 (stereo unspecified)	-3	-6%	-1.9	2%	nt	-2%[15.4 µM]	2
Cc1cccc(-c2nc(CS(=O)CC(=O)NCc3cccs3)c(C)o2)c1 (stereo unspecified)	-3	-12%	4.0	5%	-8.7%	-5%	-18
COc1ccc2ccc(O)c(CN3CCN(S(=O)(=O)c4cc([N+](=O)[O-])ccc4C)CC3)c2c1	0	nt	nt	-11%	1.6%	?	6
CCc1noc(C)c1C(=O)N1CCN(S(=O)(=O)c2cccc(C(F)(F)F)c2)CC1	9	nt	nt	6%	1.9%	-1%	-3
COc1ccccc1C(=O)NC(=O)COC(=O)CNC(=O)c1ccc(Cl)cc1Cl	-1	nt	nt	2%	-15%	-4%[15.4 µM]	?
CC1=CC2=NC(=O)/C(=C\c3ccc(-c4cccc(Cl)c4)o3)C(=N)N2O1	-21	-6%	?	9%	1.0%	-2%	9
CN(C)c1cccc2c(S(=O)(=O)NCc3ccc(S(N)(=O)=O)cc3)cccc12	0	4%	-4.0	3%	-0.8%	21%[15.4 µM]	2
CCN(CC(=O)NC1CCS(=O)(=O)C1)S(=O)(=O)c1c(C)c(C)cc(C)c1C (stereo unspecified)	-15	nt	nt	1%	3.9%	-56%[inhibitor]	5
CN(c1ccc(O)cc1)S(=O)(=O)c1ccc2ccccc2c1	1	1%	-1.5	-5%	-7.8%	-4%[15.4 µM]	5
CCn1c(CNC(=O)c2ccccc2Br)nnc1SCC(=O)NC1=NCCS1	3	-10%	nt	11%	nt	-11%[15.4 µM]	0
O=C(OCC(=O)N1CCC(Cc2ccccc2)CC1)c1cc(Br)ccc1O	-2	nt	nt	5%	-18%	5%	nt
Cc1ccc(Cl)cc1NC(=S)N(CCCN1CCOCC1)Cc1ccco1	-8	11%	-7.1	4%	nt	-4%[15.4 µM]	-5
CCCc1cc(=O)c2c(O)cccc2o1	-11	9%	-6.5	12%	0.7%	-6%[15.4 µM]	-21
CN(C(=O)c1cccc(NC(=O)Cc2cccc(NC(=O)C3CCN(C(=O)CCc4ccccc4)CC3)c2)c1)C1CC1	0	nt	nt	0%	-1.5%	nt	nt
COc1cc(Cl)cc(C2NC(=O)NC(C)=C2C(C)=O)c1OCC(=O)O (stereo unspecified)	-3	-14%	5.8	6%	-2.6%	-31%[inhibitor]	-12
CCOC(=O)CCc1c(C)c2ccc(OCc3nn[nH]n3)cc2oc1=O	-6	20%	3.7	-15%	25%	-36%[inhibitor]	4
CCOc1ccc2ccccc2c1CNCCN1CCOCC1	-14	14%	5.7	6%	-2.6%	-18%	3
Nc1nc2c(s1)CCc1c-2cnn1-c1ccccc1	8	2.5µM*	-0.8	-13%	4.9%&4.3%	-20%	-2
Cc1cccc(OCC(=O)Nc2cc(C)ccc2O)c1	15	15%	-0.1	-7%	-0.9%	5%	-2
Cn1c(C(=O)Nc2ccccc2)cc2sccc21	9	-5%	3.1	1%	0.9%	-4%	-10
NS(=O)(=O)c1ccc(NC(=O)CSc2ccccc2)cc1	-15	6%	3.9	2%	0.3%	-1%	-5
CCOC(=O)N1CCC(N2C(=O)c3ccccc3C2Nc2ccc(C)cc2)CC1 (stereo unspecified)	-11	12%	1.8	-12%	-1.2%	3%	nt
O=C(/C=C/c1ccccc1[N+](=O)[O-])N1CCN(c2ccc(F)cc2)CC1	-2	4%	-4.5	-19%	-0.2%	-9%	1
Cn1c(SCC(=O)N2CCOCC2)nnc1-c1ccccc1	11	2%	-0.9	2%	1.2%	-13%	-7
O=C(Cc1ccc(S(=O)(=O)N2CCCC2)s1)N1CCOCC1	2	8%	1.0	-17%	1.0%	-17%	7
Cc1ccc2nc(SC(C)C(=O)Nc3cccc([N+](=O)[O-])c3)[nH]c2c1 (stereo unspecified)	-26	?	-1.2	?	-4.9%	-20%	-3
CCCCc1ccc(S(=O)(=O)Nc2ccc(C)c(NS(C)(=O)=O)c2)cc1	-8	9%	0.9	4%	0.5%	-11%[15.4 µM]	nt
COC(=O)c1ccc(NC(=O)CSc2nccn2CCc2ccccc2)cc1	-8	14%	1.5	-4%	1.5%	4%	-4
O=C(Nc1ccccc1F)C1CCCN1S(=O)(=O)c1ccc(Cl)cc1 (stereo unspecified)	-2	nt	nt	14%	1.1%	19%	-11
Cc1ccc(S(=O)(=O)C2(C(=O)Nc3ccc(Br)cc3)CC2)cc1	-5	4%	0.4	-17%	nt	-5%[15.4 µM]	14
COc1cccc(Nc2nnc(SCn3nnc4ccccc4c3=O)s2)c1	-4	1%	2.3	2%	-0.3%	2%	3
Cc1[nH]n(-c2ccc(Cl)cc2)c(=O)c1/C=N/c1nnc(-c2ccccc2)s1	-1	19%	3.0	-10%	-13%	-28%	3
CC(C)N(CC(N)=O)C(=O)c1sc2cc(F)ccc2c1Cl	-1	?	0.6	0%	nt	7%[15.4 µM]	-6
COc1ccc(NC(=O)c2sccc2SCc2cccc(C(F)(F)F)c2)cc1	-11	8%	-1.5	-9%	-1.9%	0%	9
O=C(CCc1ccccc1)Nc1ccccc1OC(=O)c1ccccc1	-7	nt	nt	5%	nt	?	nt
COC(=O)NC(=S)N1CCOCC1	-4	-28%	nt	5%	-2.5%	22%[15.4 µM]	-1
CCOc1ccc(NC(=O)COC(=O)CCCc2c[nH]c3ccccc23)cc1	-1	0%	8.7	-4%	-1.4%	-10%	23
O=C(NCc1ccccn1)NC12CC3CC(CC(C3)C1)C2	-10	6%	6.0	3%	0.6%	?	-24
Cn1c(=O)c2c(nc3sccn32)n(C)c1=O	-18	-17%	-3.4	29%	1.3%	?	88*
COc1cc(SC)ccc1C(=O)N1CCN(c2ccccc2F)CC1	-4	21%	2.4	-11%	nt	4%[15.4 µM]	-1
Cc1ccc(C)c(NS(=O)(=O)c2ccc(-n3cccn3)cc2)c1	-8	nt	nt	nt	-5.4%	-59%[inhibitor]	nt
S=c1[nH]nc(Cc2ccccc2)n1Cc1ccco1	2	4%	2.4	1%	1.7%	25%	23
Cc1ccc(NC(=O)CNC(=O)c2ccco2)c(Cl)c1	-4	?	-14	6%	-1.1%	-13%	-3
COc1ccc(C(C)=O)cc1CN(c1ccccc1OC)S(=O)(=O)c1cccs1	-1	11%	-0.4	-12%	nt	29%[15.4 µM]	-3
Cc1ccc(Sc2ncccc2C(=O)O)c(C)c1	-6	2%	1.1	-6%	-2.6%	?	4
Cc1ccc(C(=O)N/C(=C\c2cccc([N+](=O)[O-])c2)C(=O)Nc2cccc(C(=O)O)c2)cc1	-2	1%	-1.4	-2%	1.1%	-1%[15.4 µM]	10
O=C(O)c1ccc(NC(=S)NC(=O)c2cccc(COc3ccccc3)c2)cc1	-7	50µM*	5.2	-22%	1.0%	-6%	-4
S=C1NC[C@H](Cc2ccccc2)N1CC1CCN(CCCC2CCCC2)CC1	-16	nt	nt	7%	1.7%	nt	nt
O=C(Nc1ccn(CCCNCCc2ccccn2)c(=O)n1)OCc1ccccc1	2	nt	nt	nt	-0.5%	?	nt
Cc1nc(N2CCN(c3ccccc3)CC2)nc2c1C(=O)CCC2	6	-3%	-0.9	?	-1.5%	13%	4
COc1ccc(Cl)cc1S(=O)(=O)N1CCCC(C(=O)NCc2ccncc2)C1 (stereo unspecified)	-14	7%	-2.6	0%	-1.8%	-41%[inhibitor]	0
Cc1ccc(Cl)cc1Nc1nc(-c2sc(NC(=O)c3cccc(Cl)c3)nc2C)cs1	nt	-1%	0.3	nt	nt	nt	3
Cc1cccc(C)c1NC(=O)NN1C(C)CCCC1C (stereo unspecified)	5	12%	0.1	4%	nt	15%[15.4 µM]	-19
CC(C)NC(=O)c1ccc2c(c1)N(CC(=O)N1CCCC1)C(=O)C(C)(C)O2	-1	11%	0.6	3%	nt	-2%	-5
(continued)
SMILES	D2 PAM	Sfp inh	Menin MLL FP FL	gsp antag	ClpP mod	gsp agonist	TRPV1 PAM
Cc1cc(C)nc(NC2=NCCN2C(=S)Nc2ccc(C)c(C)c2)n1	-4	12%	0.4	-19%	nt	-1%[15.4 µM]	2
Oc1c(Cl)cc(Oc2cc(Cl)c(O)c(CN3CCOCC3)c2)cc1CN1CCOCC1	-2	nt	nt	-12%	nt	?	nt
Cc1[nH]c2ccc(C(=O)OC(C)C(=O)NC3CCCCC3C)cc2c1C (stereo unspecified)	-5	nt	nt	-19%	-4.3%	7%	-18
O=C(O)C/C(=C\c1cc2c(cc1Br)OCO2)c1nc2ccccc2s1	-6	?	1.0	-19%	nt	0%	?
Cc1cccc(Oc2ncc(-c3ccc(Cl)cc3)cn2)c1C	-10	-13%	-5.3	-9%	-1.1%	0%	nt
COC(=O)CNc1cc(S(=O)(=O)N2CCCCC2)ccc1Oc1cccc(C)c1	-1	3%	-4.1	0%	nt	-18%[15.4 µM]	?
CC(C)(C)C(=O)Nc1ccc(N2CCN(c3ccc(C(F)(F)F)cn3)CC2)nc1	3	20%	4.7	5%	nt	-20%	5
CO/N=C/C1C(=O)NN=C1c1ccccc1 (stereo unspecified)	-1	-2%	-1.6	5%	nt	-8%[15.4 µM]	6
COc1ccc(/C=N\NC(=O)/C(=C\Nc2nccc(C)n2)NC(=O)c2ccccc2)cc1	-17	13%	-2.7	-14%	-5.5%	-16%	-6
Cc1ccc(O)c(C(CC(=O)NC(C)C)c2ccccc2)c1 (stereo unspecified)	-11	11%	-3.7	3%	-4.0%	20%	1
